Source: PubChem BioAssay
TRPML1 ag: activates the human TRPML1 channel | TRPML1-expressing cells, Ca2+ dye fluorescence, FDSS; host cell line not named in the record; reference of the full effect not given here | 410,000 compounds, 0.12% hits | Q9GZU1 | activation, % (no concentration beside the values); in the data active = activation above about 50%; inconclusive = about 30% to 50%; inactive = below about 30%; note: 0% is about no effect; the text of the record puts the active cut at 80%
Target sequence (Q9GZU1 whole entry, looked up): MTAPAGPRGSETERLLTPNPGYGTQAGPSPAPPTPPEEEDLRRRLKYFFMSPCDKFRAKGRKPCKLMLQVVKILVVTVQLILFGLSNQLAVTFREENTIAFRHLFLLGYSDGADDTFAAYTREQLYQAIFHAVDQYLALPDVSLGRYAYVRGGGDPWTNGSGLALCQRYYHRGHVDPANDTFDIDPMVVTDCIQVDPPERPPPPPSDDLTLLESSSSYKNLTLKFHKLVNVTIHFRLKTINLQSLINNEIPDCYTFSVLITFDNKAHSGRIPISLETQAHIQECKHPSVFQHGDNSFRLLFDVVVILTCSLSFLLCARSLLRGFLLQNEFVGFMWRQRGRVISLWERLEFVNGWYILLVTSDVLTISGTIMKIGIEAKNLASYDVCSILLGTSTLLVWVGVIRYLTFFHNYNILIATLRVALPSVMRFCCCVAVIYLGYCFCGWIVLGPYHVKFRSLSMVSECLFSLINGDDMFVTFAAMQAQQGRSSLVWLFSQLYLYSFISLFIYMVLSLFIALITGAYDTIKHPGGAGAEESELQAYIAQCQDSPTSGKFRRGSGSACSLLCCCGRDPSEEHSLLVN
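Agonist activity was taken from a 110 s kinetic Ca2+ dye read on the FDSS after pinning compounds onto TRPML1-DL cells. The cells were seeded at 1,500/well with Tet inducer, incubated about 16 h, then dye-loaded at room temperature.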
ClpP mod: qHTS Assay for Activators of ClpP; purified B. subtilis ClpP, FRET peptide cleavage, 20 min; Potency, µM (doses to about 57.5 µM), without a hit: at the highest dose activity change, negative = active; 340,000 compounds, 1.9% hits; active = well fitted falling curve with a large enough effect; inconclusive = small, poorly fitted or top-dose-only effect; inactive = no such curve, though single readings can be large or run the other way; note: potency is the fitted concentration of half-maximal effect; the source files actives as falling curves though it sought activators and does not explain the sign; nearly all actives have a fitted effect of over 65% in size; many hits overshoot -100%
Target sequence (P80244 whole entry, looked up): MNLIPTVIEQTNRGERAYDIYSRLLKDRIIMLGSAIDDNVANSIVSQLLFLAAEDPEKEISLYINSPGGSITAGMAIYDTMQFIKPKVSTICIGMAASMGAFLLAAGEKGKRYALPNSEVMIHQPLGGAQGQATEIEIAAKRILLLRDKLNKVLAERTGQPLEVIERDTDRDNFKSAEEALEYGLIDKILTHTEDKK
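FRET quenching reversal measured ClpP activation: 10 microg/mL B. subtilis ClpP at pH 8 with the FRET-FV decapeptide, read at 430 nm after 320 nm excitation. The 20-min minus 0-min signal was scaled between DMSO/no-enzyme wells and ADEP (5.8 microM final).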
TRPML1 inh: human mucolipin-1 channel inhibition. Q9GZU1. TRPML1-inducible cells, Ca2+ dye fluorescence, FDSS; active compounds read low; inhibition of EC80 agonist-evoked calcium signal. activity change, negative = inhibition, % (concentration not given with the values). 390,000 compounds, 0.02% hits. AID 624415; in the data active means activity change below about -50%; inconclusive means about -30% to -50%; inactive means above about -30%;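 note: stimulus is agonist 54-4 at its EC80 concentration; % is set by controls: 0 for no effect and ±100 for the full control effect; the text of the record puts the active cut at -80%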
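TRPML1-DL cells, Tet-induced overnight (~16 h, 37 °C) at 1,500 cells/well, were loaded with Ca8 no-wash dye plus quencher for 45-90 min at room temperature. Compounds were pinned during FDSS kinetic reading; agonist 54-4 at EC80 (4 uM final) then added.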
Menin-MLL FL inh: inhibitors of human menin-MLL interaction, wild-type MLL peptide; 290,000 tested, under 10 active; FP activity change, % at 61.4 µM; AID 1766; Fluorescence polarization, fluorescein-MLL peptide displacement from menin; inconclusive = falling polarisation curve, or a change in total fluorescence; inactive = total fluorescence flat and polarisation flat or rising; no compound was filed as active; the % refers to the polarisation; negative = inhibition;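 note: % of control where 0% means no effect; inhibitors lower the polarisation; unlabelled MLL peptide was the positive control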
gsp ag: gsp mutant agonism; gsp mutant cells, cAMP HTRF, 30 min; control for the full effect not named in the record; Potency, µM (doses to about 76.9 µM), for the others: at the highest dose activation (cAMP increase), usual class: activators; 340,000 compounds, 0.13% hits; AID 624287; active = well fitted activation curve with a large enough effect; inconclusive = small, poorly fitted or top-dose-only effect, or another doubt; inactive = no such curve, though single readings can be large or run the other way; cell line not stated here;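 note: phosphodiesterase inhibitor Ro 20-1724 added with compounds to block cAMP breakdown; potency is the fitted concentration of half-maximal effect; nearly all actives have a fitted effect of over 60% in size; about a fifth of the inactives were tested at one dose only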
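Cells in DMEM/10% FBS with G418 were pretreated with compounds in DMSO plus […] (300 uM stock) for 30 min at 37C. cAMP was measured by HTRF (cAMP-d2 plus anti-cAMP antibody-K) after 30 min at room temperature.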
gsp antag: antagonizes gsp, the McCune-Albright syndrome mutation | 340,000 compounds, 0.4% hits | gsp-mutant cells, cAMP HTRF, 30 min; control for the full effect not named in the record | Potency, µM (doses to about 76.9 µM), without a hit: at the top dose activity change, negative = inhibition, hits mostly inhibitors; active = falling curve of any shape with a large fitted effect; inconclusive = falling curve, mostly with a smaller effect; inactive = flat or rising curve; cell line not stated here;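 note: intracellular cAMP measured with PDE inhibitor Ro 20-1724 present during compound exposure; potency is the fitted concentration of half-maximal effect; % is set by controls: 0 for no effect and ±100 for the full control effect; nearly all actives have a fitted effect of over 65% in size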
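G418-selected cells were plated in DMEM/10% FBS for 16-24 h at 37C, then treated with compounds plus the PDE inhibitor […] (300 uM solution added) for 30 min at 37C. Intracellular cAMP was measured by HTRF after 30 min lysis at room temperature.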
* = called active by the depositor; ? = inconclusive; . = no result given; & = joins results of further samples; [ ] = dose if it differs, or a comment.

SMILES	TRPML1 ag	ClpP mod	TRPML1 inh	Menin-MLL FL inh	gsp ag	gsp antag
COc1ccc(CCNC(=O)c2ccc3c(c2)N(Cc2c(F)cccc2Cl)C(=O)CS3)cc1OC	2.4	-3.0%	2	.	.	.
Cc1cc(C)n(C(=O)Cn2nc(C(F)F)cc2C)n1	-0.4	-1.3%	11	0.3	-4%	11%
COCCCn1c(SCC(=O)Nc2ccc3c(c2)OCCO3)nnc1-c1ccoc1C	-0.3	2.0%	4	0.7	14%	-10%
Cn1c(=O)oc2cc(S(=O)(=O)CCC(=O)Nc3ccccc3)ccc21	0.0	0.2%	-4	.	-14%	1%
OC1CCCN(C(=S)NCc2ccccc2)C1 (configuration not stated)	0.1	.	28	-1.0	-5%[15.4 µM]	.
CCCOc1cccc(C(=O)NCCNC(=O)c2ccc(C)nc2)c1	2.9	.	30	-3.0	4%	-3%
CCN(CC(=O)NCc1ccc(Cl)cc1)C(=O)/C=C/c1cc(OC)c(OC)c(OC)c1	-0.5	.	-12	3.3	5%	-3%
CC(=O)NC(CC(C)C)C(=O)NC(CO)C(=O)NC(CCC(=O)O)C(=O)NC(C)C(=O)NC(CC(C)C)C(N)=O (configuration not stated)	-0.5	-0.3%	3	.	.	4%
CCCCOC(=O)C1CCC[C@@H](C)N1 (some centres not stated)	1.9	-1.4%	19	-0.6	33%	-10%
COCCCNc1nc2nonc2nc1N1CCN(C2CCCC2)CC1	0.0	.	7	-6.5	?	-3%

The listing continues:
SMILES	TRPML1 ag	ClpP mod	TRPML1 inh	Menin-MLL FL inh	gsp ag	gsp antag
CCC1(CC)NC(=O)N(CC(=O)NC(=O)NCc2ccccc2)C1=O	0.9	.	13	2.1	-19%[15.4 µM]	7%
COc1cccc(-n2c(=O)c3c(C)c(C)sc3n(Cc3ccccc3C#N)c2=O)c1	0.2	1.5%	-13	.	.	.
CCc1cc(=O)[nH]c(SCc2cccnc2)n1	0.4	-1.2%	48	1.8	7%	-7%
O=C(Nc1ccn(Cc2cccc3ccccc23)n1)c1cccnc1	2.2	.	-2	-6.6	-17%	7%
Nc1nnc(SCc2nnc(-c3ccccc3)o2)s1	-0.2	0.2%	-13	7.2	-1%	8%
O=C(CN1CCN(S(=O)(=O)c2ccc(Br)s2)CC1)N1CCCCC1	-0.1	?	9	.	5%	-7%
CCN(CC)CCCNC(=O)c1ccc2nc(CCc3ccccc3)oc2c1	-0.1	-1.9%	-10	.	.	.
COc1cc2[nH]c(=O)n3nc(-c4ccccc4)nc3c2cc1OC	-0.6	?	15	1.7	-24%	-7%
O=C(OCC(=O)c1ccc[nH]1)C1=COCCO1	0.0	1.7%	15	.	-23%	13%
O=C1CC(NCc2ccncc2)C(=O)N1c1ccc(Cl)cc1 (configuration not stated)	-0.3	0.1%	18	2.9	-27%	-2%

The list continues:
SMILES	TRPML1 ag	ClpP mod	TRPML1 inh	Menin-MLL FL inh	gsp ag	gsp antag
O=C1CSC(c2ccc([N+](=O)[O-])cc2)N1c1ccccc1F (configuration not stated)	.	-0.1%	.	-2.5	-27%	-3%
O=C(c1cc(-c2ccccc2O)on1)N1CCCCCC1	0.9	.	61	3.8	5%[15.4 µM]	0%
COc1ccc2occ(CC(=O)Nc3ccc(S(=O)(=O)Nc4nccc(C)n4)cc3)c2c1	0.5	-1.2%	2	.	.	.
Cc1cccc(NC(=S)NCc2cccs2)c1C	0.4	0.5%	14	0.1	4%	12%
Cc1ccc(CNS(=O)(=O)c2ccc3c(c2)n(C)c(=O)n3C)cc1	-0.6	.	-7	-4.0	14%	2%
COc1ccc(-c2cccc(NS(=O)(=O)c3ccc([N+](=O)[O-])cc3)c2)nn1	-0.5	-0.9%	19	.	-26%	-22%
O=C(NC1CCCCCC1)C1c2ccccc2C(=O)N1C1CC1 (configuration not stated)	0.1	-1.6%	-2	2.6	-51%[inhibitor]	0%
CCn1c(SCC(=O)Nc2cc(C)c(Cl)cc2OC)nnc1-c1ccco1	3.0	0.8%	3	-1.8	-12%	0%
CSc1ccccc1C(=O)NCCCOC(C)C	-0.2	-0.8%	-2	-0.7	-23%	12%
CCCCCn1cc2c(c1-c1ccc(Br)cc1)c(=O)n(C)c(=O)n2C	-0.4	3.6%	6	.	.	.

(cont.)
SMILES	TRPML1 ag	ClpP mod	TRPML1 inh	Menin-MLL FL inh	gsp ag	gsp antag
Cc1noc(C)c1C(=O)N1CCC(CO)(Cc2ccccc2)CC1	1.3	.	17	0.4	29%	-11%
O=C(CC12CC3CC(CC(C3)C1)C2)NC(Cc1ccccc1)C(=O)O (configuration not stated)	0.6	.	-16	-2.9	-16%	-2%
Cc1c(NC(=O)c2n[nH]c(=O)c3ccccc23)c(=O)n(-c2ccccc2)n1C	-1.2	-1.6%	1	0.1	10%	1%
Fc1cccc(Cl)c1Cn1nnc(-c2ccc(N3CCOCC3)cc2)n1	-1.0	-3.8%	-7	8.8	-20%	12%
O=C(Cc1ccc(Br)cc1)NC1CCSC1=O (configuration not stated)	-0.4	.	-7	-0.8	10%[15.4 µM]	0%
O=C(NC1CCSC1=O)c1cccc(C(=O)NC2CCSC2=O)c1 (configuration not stated)	0.4	0.8%	5	2.2	11%	9%
COc1ccc(OCc2ccc(-c3nc(C#N)c(NCc4ccccc4)o3)o2)cc1	0.0	11µM*	4	.	.	.
CCN1C(=O)[C@H]2[C@@H](c3ccc(-c4ccc(F)cc4)cc3)N[C@@](Cc3ccccc3)(C(=O)OC)[C@H]2C1=O	0.1	-23%	27	.	-41%[inhibitor]	-4%
Cc1ccc2c(c1)N(C(C)C(=O)NCCc1ccccc1)C(=O)CO2 (configuration not stated)	-0.5	0.0%	-8	8.5	-43%[inhibitor]	-2%
COc1ccc(NS(=O)(=O)c2ccc(Cl)c(C(=O)O)c2)cc1S(=O)(=O)N1CCCCC1	0.1	-1.8%	11	2.6	22%	1%

(listing goes on)
SMILES	TRPML1 ag	ClpP mod	TRPML1 inh	Menin-MLL FL inh	gsp ag	gsp antag
CC(=O)N/C(=C/c1ccc2c(c1)OCO2)C(=O)Nc1ccccc1	0.5	.	45	-0.3	18%	5%
C1CCN(C2CCN(c3nc4nonc4nc3N3CCSCC3)CC2)C1	-0.4	.	-3	-1.4	-2%[15.4 µM]	6%
COc1ccc(C(=O)Oc2ccc(C(c3c(C)[nH][nH]c3=O)c3c(C)[nH][nH]c3=O)cc2OC)cc1	1.5	-2.2%	-13	.	.	.
O=C(N/N=C/c1ccncc1)c1cc2ccccc2cc1O	-0.3	0.7%	-4	.	15%	-24%
Cc1ccc2c(c1)[nH]c1c(=O)n(CCN3CCCCC3)cnc12	-0.4	?	-5	0.1	-8%	-7%[15.4 µM]
CC(=O)N1CCCc2ccc(NS(=O)(=O)c3ccc(C)c(C)c3)cc21	-0.2&1.5	-3.0%&-0.9%	26&-24	9.2	22%	-1%
CC(=O)Nc1ccc(NC(=O)C(C)Sc2nnc(-c3cccs3)o2)cc1 (configuration not stated)	1.4	-0.2%	18	0.3	4%	-1%
CCc1c(C)sc2c1CCN(Cc1ccc(F)cc1)C2c1ccccc1 (configuration not stated)	-0.1	-14%	1	.	.	.
O=C(COC(=O)c1ccc(F)c(S(=O)(=O)N2CCOCC2)c1)Nc1ccc2c(c1)OCO2	0.2	-1.4%	-11	.	5%[15.4 µM]	-9%
COC(=O)c1ccc(NC(=O)CN(c2ccc(C)cc2)S(=O)(=O)c2c(C)nn(C)c2C)cc1	4.8	0.7%	-3	5.6	-57%[inhibitor]	-3%

(list continues)
SMILES	TRPML1 ag	ClpP mod	TRPML1 inh	Menin-MLL FL inh	gsp ag	gsp antag
CCOC(=O)Cc1csc(SCC(=O)Nc2cc(Cl)ccc2Oc2ccccc2)n1	5.2	-2.9%	51	-0.4	-56%[inhibitor]	?
C=CCN(C(=O)CSc1nc2ccsc2c(=O)n1Cc1ccc(C(=O)O)cc1)c1ccccc1	2.7	-0.9%	7	.	-76%[inhibitor]	.
O=C(c1ccccc1)c1cccc(NC(=O)c2ccc(Br)o2)c1	0.4	-4.1%	59	3.1	1%	-15%
Cc1ccc(NC(=O)/C(C#N)=C/c2ccc(Sc3nc(C)cc(C)n3)o2)cc1	-0.4	1.0%	6	0.7	-19%	-4%
NC(=O)CN1CCOCCOCCN(CC(N)=O)CCOCC1	0.8	-0.8%	-3	0.4	4%	-6%
CN(CCNC(=O)CCCOc1cc(=O)n(C)c2ccccc12)Cc1ccccc1	2.1	-5.1%	-13	-8.7	9%	-5%
Cc1cc2c(cc1S(=O)(=O)N(CCN(C)C)Cc1ccccc1)OCC(=O)N2	0.2	0.4%	-5	.	.	.
CC(NC(=O)CN(C)Cc1cccc(Cl)c1)c1ccccc1 (configuration not stated)	1.4	.	-6	.	2%[15.4 µM]	11µM*
COc1cc(/C=C/C(=O)OCC(=O)Nc2ccc([N+](=O)[O-])cc2)ccc1O	11	-3.6%	-13	4.4	-16%	-11%
O=C(NCCCCl)C1CC(=O)N(CCc2ccc(F)cc2)C1 (configuration not stated)	0.0	.	10	-2.4	-33%	8%

Next part.
SMILES	TRPML1 ag	ClpP mod	TRPML1 inh	Menin-MLL FL inh	gsp ag	gsp antag
CCOc1cc(-c2nc(-c3ccc(OC)cc3)no2)cc(OCC)c1OCC	-0.1	-3.1%	8	-1.9	2%	18%
CCn1ccnc1CN(C)C(=O)CC1C(=O)NCCN1Cc1c(F)cccc1Cl (configuration not stated)	0.2	.	-4	-5.0	-8%	7%
O=C(COC(=O)CCCc1nc2ccccc2s1)NC(=O)NCc1ccco1	1.2	.	4	-3.1	31%	-11%
Cc1cccc(N2CC(=O)N(c3cccc(C)c3)CC2=O)c1	-0.5	-1.1%	-17	5.5	-4%	7%
O=C(COC(=O)Cc1ccccc1F)Nc1cc(S(=O)(=O)N2CCOCC2)ccc1N1CCCC1	3.1	-4.2%	-14	-0.7	?	20%
c1ccc(-c2cc(N3CCCCC3)c3ccccc3n2)cc1	-0.1	.	-4	-2.5	8%[15.4 µM]	?
CCC(CC)C1C(C#N)=C(N)Oc2cc(C)oc(=O)c21 (configuration not stated)	0.4	-0.4%	-3	3.5	-4%	-8%
Cc1n[nH]c(=O)c2c(NC(=O)CSc3nc4ccccc4c(=O)n3CCCO)oc(C)c12	-0.3	.	11	.	11%[15.4 µM]	13%
Cc1ccc(S(=O)(=O)N(C)c2ccc(OC(=O)c3cc(=O)[nH]c4ccccc34)cc2)cc1	-0.5	-4.2%	-5	.	.	-21%
Cc1sc2ncn(CC(=O)N3CCN(c4ccccc4F)CC3)c(=O)c2c1S(=O)(=O)N1CCN(c2ncccn2)CC1	-0.9	-5.4%	-16	.	.	.
CCn1cc(C(=O)N2CCN(c3cc(C)ccc3C)CC2)c(=O)c2cc(S(=O)(=O)N3CCOCC3)ccc21	-0.9	-4.1%	10	.	.	.
